Ecoli rRNA inh: selective bacterial rRNA inhibition in E. coli. actives 1.6% (n = 350,000). E. coli WT GFP vs humanized-ribosome RFP mutants, fluorescence, 24 h; hits give low values; DMSO median 0, no signal -100. GFP signal change (wild-type ribosome), % (no concentration beside the values);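 active = significant combined selectivity score with lowered wild-type GFP, culture density cut under 30%, mutant RFP and density less affected; inactive = any of these conditions unmet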; also: one replicate is shown; some compounds called inactive have numbers as strong as hits
Ecoli rRNA inh OD600: recorded beside Ecoli rRNA inh, whose call it bears; OD600 change, %; measured here: OD600 growth;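 optical density of the mix in the first replicate; 0 = DMSO median and -100 = no signal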
Ecoli rRNA inh RFP: recorded beside Ecoli rRNA inh, whose call it bears; RFP signal change, %; measured here: RFP humanized mutant strains;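 first replicate; 0 = DMSO median and -100 = no signal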
* = called active by the depositor; & = joins results of further samples. Only part of the results is shown; the hit share may differ from the screen's.

SMILES	Ecoli rRNA inh	Ecoli rRNA inh OD600	Ecoli rRNA inh RFP
CCCC(=O)N1CC2(CN(C(=O)C3CC3)C2)c2c(n(C)c3cc(OC)ccc23)[C@@H]1CO	3	7	-2.2
CO[C@H]1CN(C)C(=O)c2ccc(NC(=O)c3ccc(F)cc3)cc2OC[C@@H](C)N(C)C[C@@H]1C	1	-3	-1.3
Cn1cnc(S(=O)(=O)N2[C@@H]3CNC[C@H]2C3c2ccc(-c3ccccc3)cc2)c1 (stereo partly drawn)	4&6	12&9	4.4&1.8
O=C(Nc1ccccc1F)N1CC(=O)N2[C@@H](CO)[C@@H](c3ccc(C#CC4CCCC4)cc3)[C@@H]2C1	0	-50	33
O=C(NCc1ccc(F)cc1)[C@@H]1[C@@H](CO)[C@@H]2Cn3c(cccc3=O)[C@H]1N2C(=O)C1CC1	3	8	-1.1
C[C@@H]1CCCCO[C@@H](CN(C)C(=O)c2ccccc2)[C@@H](C)CN([C@@H](C)CO)C(=O)c2cc(NS(=O)(=O)c3cn(C)cn3)ccc2O1	3	5	-2.3
O=C(C[C@@H]1CC[C@@H](NS(=O)(=O)c2ccc(F)cc2)[C@H](CO)O1)NCc1ccccc1F	2	1	-1.6
C[C@@H]1CN([C@H](C)CO)C(=O)c2cc(-c3ccc(F)cc3)cnc2O[C@H]1CN(C)Cc1ccc(F)cc1	2	3	4.0
Cc1noc(C)c1NC(=O)N(C)C[C@@H]1OCCCC[C@@H](C)Oc2ccc(N(C)C)cc2C(=O)N([C@@H](C)CO)C[C@H]1C	1	16	3.7
O=S(=O)(c1ccccc1)N1[C@H](CO)[C@@H]2c3ccccc3NC[C@@H]21	-2	5	3.1
O=C(c1cnccn1)N1CC(=O)N2[C@@H](CO)[C@H](c3ccc(-c4ccc(F)cc4)cc3)[C@@H]2C1	3	2	-0.7
CC(C)NC(=O)N(C)C[C@@H]1Oc2c(NS(=O)(=O)c3cccs3)cccc2C(=O)N([C@H](C)CO)C[C@@H]1C	5	5	-0.3
O=C1NCCOCn2nncc2CC[C@@H]1Cc1cccc(Cl)c1	1	4	-1.3
COc1ccccc1S(=O)(=O)N1CC[C@@H]2[C@@H](CO)N(C)c3ccc(-c4cccc(C#N)c4)cc3[C@@H]21	-5	2	3.7
O=C(NCc1ccccc1)[C@@H]1[C@@H](CO)[C@@H]2Cn3c(ccc(-c4cccnc4)c3=O)[C@@H]2N1Cc1cocn1	0	4	-1.3
N#C[C@@H]1[C@H](c2ccc(-c3cccc(F)c3)cc2)[C@@H](CO)N1C(=O)NC1CCCCC1	-26	-61	1.5
O=C(NC1CCC1)[C@@H]1[C@@H](CO)[C@@H]2Cn3c(cccc3=O)[C@H]1N2CC1CCCC1	-4	-8	-3.8
O=C(c1cccnc1)N1CC(=O)N2[C@H](CO)[C@H](c3ccc(/C=C/c4ccccc4)cc3)[C@H]2C1	-1	-5	-1.6
O=C(NC1CCCC1)N1CC(=O)N2[C@H](CO)[C@@H](c3ccc(/C=C/c4ccccc4)cc3)[C@@H]2C1	-12	-54	28
O=C(c1ccccc1)N1CC(=O)N2[C@H](CO)[C@@H](c3ccc(C#CCC4CCCC4)cc3)[C@@H]2C1	8	-1	-2.3
CC(C)CC#Cc1ccc([C@H]2[C@H](CO)N3C(=O)CN(C(=O)Cc4ccccc4)C[C@@H]23)cc1	-40	-62	8.8
COc1cccc(-c2ccccc2[C@@H]2[C@H](C#N)N(C(=O)Cc3ccccc3)[C@H]2CO)c1	-32	-53	-4.5
CCC(=O)N(C)C[C@H]1Oc2cc(C3=CCCCC3)ccc2S(=O)(=O)N([C@H](C)CO)C[C@H]1C	0	-4	1.0
COc1ccccc1-c1ccc2c(c1)O[C@H](CN(C)S(=O)(=O)c1ccc(F)cc1)[C@@H](C)CN([C@H](C)CO)S2(=O)=O	-1	-3	0.2
CCCNC(=O)[C@H]1[C@H](CO)[C@H]2Cn3c(ccc(-c4cccc(F)c4)c3=O)[C@@H]1N2Cc1ccccc1F	-6	-16	8.2
CO[C@@H]1CN(C)C(=O)c2cc(NC(=O)CN(C)C)ccc2OC[C@@H](C)N(Cc2ccccc2F)C[C@H]1C	-1	8	-1.3
CCC(=O)Nc1ccc2c(c1)OC[C@@H](C)N(C(=O)CC)C[C@@H](C)[C@H](OC)CN(C)C2=O	3	2	-1.3
O=S(=O)(c1ccccc1)N1CCCCN2[C@@H](CO)[C@@H](c3ccc(C#Cc4ccccc4)cc3)[C@@H]2C1	-44	-40	3.0
COCC(=O)N1[C@@H](C#N)[C@@H](c2ccccc2C2=CCCCC2)[C@@H]1CO	-7	17	-2.8
CCC(=O)NC[C@H]1[C@@H](c2ccc(-c3ccc(OC)cc3)cc2)[C@@H](CO)N1C(C)=O	-1	5	-2.3
C[C@H]1CC=CC[C@H](c2cccc(Cl)c2)NC(=O)[C@H](Cc2ccccc2)N(C)C(=O)c2ccccc2O1 (mixture of isomers)	-1	1	2.6
COc1ccc2c3c(n(C)c2c1)[C@@H](CO)N(C(=O)c1cccnc1)CC31CCN(S(C)(=O)=O)CC1	-1	0	-1.7
CCCN1[C@@H]2c3ccc(-c4ccncc4)c(=O)n3C[C@@H]2[C@@H](CO)[C@@H]1C(=O)OC	4	4	2.0
C/C=C/c1ccc([C@@H]2[C@H](CO)N(C(=O)C3CC3)C23CN(S(=O)(=O)CC)C3)cc1	-4	-3	1.7
Cc1ccccc1-c1ccc([C@H]2[C@H]3CN(C(=O)c4ccc(F)cc4)CC(=O)N3[C@H]2CO)cc1	5	-17	2.1
COc1ccc(NC(=O)Nc2cccc3c2O[C@H](CN(C)Cc2ccc(Cl)c(Cl)c2)[C@@H](C)CN([C@H](C)CO)C3=O)cc1	-5	-4	-1.7
CO[C@H]1CN(C)C(=O)c2cc(NS(C)(=O)=O)ccc2OC[C@@H](C)NC[C@H]1C	1	3	-1.7
O=C(c1cccc(F)c1)N1CC[C@@H]2[C@@H](CO)Nc3ccc(C#Cc4ccccc4)cc3[C@@H]21	-3	1	6.9
CCCC#Cc1cnc2c(c1)C(=O)N([C@@H](C)CO)C[C@@H](C)[C@@H](CN(C)C(=O)c1cccnc1)O2	2	5	-2.0
CC(C)NC(=O)N1CC[C@@H]2[C@H]1c1cc(C#Cc3cccnc3)ccc1N(C)[C@@H]2CO	-1	9	3.0

Whole records, quoted from the list:
O=C(NCc1ccc(F)cc1)[C@@H]1[C@@H](CO)[C@@H]2Cn3c(cccc3=O)[C@H]1N2C(=O)C1CC1 in the list: Ecoli rRNA inh = 3; Ecoli rRNA inh OD600 = 8; Ecoli rRNA inh RFP = -1.1
CCC(=O)N(C)C[C@H]1Oc2cc(C3=CCCCC3)ccc2S(=O)(=O)N([C@H](C)CO)C[C@H]1C in the list: Ecoli rRNA inh = 0; Ecoli rRNA inh OD600 = -4; Ecoli rRNA inh RFP = 1.0

(more compounds)
SMILES	Ecoli rRNA inh	Ecoli rRNA inh OD600	Ecoli rRNA inh RFP
N#C[C@H]1[C@H](c2ccccc2-c2ccc(F)cc2)[C@@H](CO)N1C(=O)NC1CCCC1	2	-55	2.4
COc1ccccc1NC(=O)N[C@@H]1CC[C@@H](CCNS(=O)(=O)c2ccc(C)cc2)O[C@@H]1CO	1	3	-1.6
CC(=O)N1[C@@H]2c3cccc(=O)n3C[C@@H]2[C@@H](CO)[C@@H]1C(=O)NCc1ccccc1	-3	-2	0.5
COc1ccc(C#Cc2ccc([C@@H]3[C@@H](CO)N4C(=O)CN(C(=O)Nc5ccccc5F)C[C@H]34)cc2)cc1	2	12	0.4
C[C@H](CO)N1C[C@H](C)[C@H](CN(C)Cc2ccc(C(=O)O)cc2)OCCCC[C@H](C)Oc2ccc(NC(=O)Nc3ccc(F)cc3)cc2C1=O	-4	-1	1.6
CCCNC(=O)[C@@H]1[C@@H](CO)[C@@H]2Cn3c(ccc(-c4ccccc4F)c3=O)[C@@H]2N1C	-1	-10	0.6
CCN(C[C@@H]1[C@@H](c2ccc(C3=CCCC3)cc2)[C@@H](CO)N1C(C)=O)C(C)=O	1	5	-1.6
CN(C)C(=O)c1cc2c(c(-c3cccc(/C=C/c4ccccc4)c3)n1)[C@H](CCO)N([S@@](=O)C(C)(C)C)C2	0	-2	7.8
COCC(=O)N1CC(=O)N2[C@H](CO)[C@@H](c3ccc(C#Cc4cccnc4)cc3)[C@H]2C1	4	4	1.1
CN(C[C@@H]1[C@@H](c2ccccc2)[C@H](CO)N1CC1CC1)C(=O)c1cccc(F)c1	1	8	-0.2
CN1c2ccc(-c3cccc(F)c3)cc2[C@@H]2[C@@H](CCN2C(=O)c2ccncc2)[C@@H]1CO	-9	-20	1.4
C/C=C/c1ccc([C@@H]2[C@@H](CO)N(C(=O)C3CC3)[C@H]2CN(C)C(=O)C2CC2)cc1	0	2	0.6
CCC(=O)N1[C@H](CO)[C@@H](c2ccc(-c3ccccc3)cc2)[C@H]1CNC(=O)COC	-1	1	2.0
COc1ccc(NC(=O)Nc2cccc3c2O[C@H](CN(C)Cc2ccc(Cl)c(Cl)c2)[C@H](C)CN([C@H](C)CO)C3=O)cc1	-8	-17	-0.7
O=C(N[C@@H]1C=C[C@@H](CC(=O)N2CCc3ccccc3C2)O[C@@H]1CO)C1CCOCC1	6	9	-2.1
CCCC#Cc1cnc2c(c1)C(=O)N([C@@H](C)CO)C[C@H](C)[C@@H](CN(C)C(=O)c1cccnc1)O2	-2	-5	0.8
C[C@@H]1CN([C@@H](C)CO)C(=O)Cc2cc(NS(C)(=O)=O)ccc2O[C@H]1CN(C)C(=O)Nc1ccc(C(F)(F)F)cc1	1	-1	-1.5
CNC[C@H]1OCCCC[C@@H](C)Oc2ccc(NC(=O)Nc3c(C)noc3C)cc2C(=O)N([C@H](C)CO)C[C@@H]1C	5	8	0.7
CC(=O)N1[C@H](CO)[C@H]2c3ccccc3N(S(=O)(=O)c3ccc(F)cc3)C[C@H]21	0	7	1.2
C[C@@H]1CN([C@@H](C)CO)C(=O)c2cc(NC(=O)c3ccncc3)ccc2O[C@@H](C)CCCCO[C@H]1CN(C)C(=O)Nc1ccccc1	-1	4	1.2

4 entries from above, with values under each structure.
Fields: Ecoli rRNA inh | Ecoli rRNA inh OD600 | Ecoli rRNA inh RFP
> COc1cccc(-c2ccccc2[C@@H]2[C@H](C#N)N(C(=O)Cc3ccccc3)[C@H]2CO)c1
    -32 | -53 | -4.5
> CCC(=O)N(C)C[C@H]1Oc2cc(C3=CCCCC3)ccc2S(=O)(=O)N([C@H](C)CO)C[C@H]1C
    0 | -4 | 1.0
> COc1ccccc1-c1ccc2c(c1)O[C@H](CN(C)S(=O)(=O)c1ccc(F)cc1)[C@@H](C)CN([C@H](C)CO)S2(=O)=O
    -1 | -3 | 0.2
> CCCNC(=O)[C@H]1[C@H](CO)[C@H]2Cn3c(ccc(-c4cccc(F)c4)c3=O)[C@@H]1N2Cc1ccccc1F
    -6 | -16 | 8.2

Going on with the list.
SMILES	Ecoli rRNA inh	Ecoli rRNA inh OD600	Ecoli rRNA inh RFP
C[C@H](CO)N1C[C@H](C)[C@H](CN(C)C(=O)Nc2ccc3c(c2)OCO3)Oc2ccc(NC(=O)Nc3ccc4c(c3)OCO4)cc2CC1=O	-3	-3	-3.0
O=C(NC1CCCC1)[C@H]1[C@H](CO)[C@H]2Cn3c(ccc(-c4cccnc4)c3=O)[C@H]2N1CCc1ccccc1	-5	-9	2.1
CNC[C@@H]1OCCCC[C@@H](C)Oc2ccc(NC(=O)Nc3ccc(OC)cc3)cc2C(=O)N([C@H](C)CO)C[C@H]1C	6	7	-1.8
CCCC(=O)N1CC2(C1)CN(C(=O)c1ccc(F)cc1)[C@@H](CO)c1[nH]c3cc(OC)ccc3c12	0	5	-1.5
COc1cccc(-c2ccc([C@@H]3[C@@H](CO)N4C(=O)CN(C(=O)C5CC5)C[C@H]34)cc2)c1	0	2	-3.1
O=C(C[C@@H]1CC[C@H](NC(=O)Nc2ccccc2F)[C@@H](CO)O1)NCc1ccc(F)cc1	3	6	-2.3
COc1cccc(C#Cc2ccc([C@@H]3[C@@H](C#N)N(C(=O)C4CCCC4)[C@H]3CO)cc2)c1	0	-10	22
c1cc(-c2ccc(C3[C@H]4CNC[C@@H]3N4CC3CCCC3)cc2)ccn1 (stereo partly drawn)	1	-1	-3.0
C(=C\c1ccc(C2[C@@H]3CN(Cc4cccnc4)C[C@H]2N3)cc1)/c1ccccc1 (stereo partly drawn)	-58&-60	-75&-77	-14&-16
O=C(c1ccncc1)N1CC(=O)N2[C@H](CO)[C@@H](c3ccc(-c4ccccc4)cc3)[C@@H]2C1	1	9	0.9
O=C(Nc1ccccc1)N1CC(=O)N2[C@H](CO)[C@@H](c3ccc(-c4ccc(F)cc4)cc3)[C@H]2C1	-1	-25	4.8
CCCC#Cc1ccc([C@H]2[C@H](CO)N3C(=O)CN(C(=O)NC4CCCC4)C[C@@H]23)cc1	0	-16	3.6
C[C@H]1CN([C@@H](C)CO)C(=O)c2cc(NS(=O)(=O)c3ccc(Cl)cc3)ccc2O[C@H]1CN(C)Cc1ccc(C(F)(F)F)cc1	6	-11	7.4
Cc1noc(C)c1S(=O)(=O)N(C)C[C@H]1Oc2c(NS(=O)(=O)c3ccc(F)cc3)cccc2C(=O)N([C@@H](C)CO)C[C@H]1C	2	-5	4.2
C[C@@H]1CCCCO[C@H](CN(C)Cc2ccc(C(=O)O)cc2)[C@@H](C)CN([C@H](C)CO)C(=O)c2cc(NC(=O)Nc3ccc(F)cc3)ccc2O1	1	6	-2.8
CCC(=O)N1[C@@H](CO)[C@@H](c2ccc(-c3ccccc3)cc2)[C@@H]1CNC(=O)COC	-3	1	-2.0
C[C@@H]1CN([C@H](C)CO)C(=O)c2cc(NC(=O)C3CCCCC3)ccc2O[C@@H](C)CCCCO[C@H]1CN(C)C(=O)c1ccncc1	-1	0	0.1
O=C1N[C@@H](Cc2ccccc2)COCc2cn(nn2)CC[C@H]1Cc1cccc(F)c1	-5	-3	-0.5

Screening data: PubChem, Broad Institute
